UCH37 inh = inhibitors of human UCH37 deubiquitinase, primary screen, biochemical, Ub-AMC cleavage, fluorescence; Ubiquitin carboxyl-terminal hydrolase isozyme L5 (Homo sapiens), Q9Y5K5; purified proteasome/UCH37; inhibition, % (concentration not given with the values); 330,000 tested, 0.33% active; AID 588478, 2011;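 active = mean of two replicates above 20%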;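 also: 0% = compound-free wells with enzyme and 100% = wells lacking proteasome; stock transfer was 100 nL into about 20 µL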
Target sequence (Q9Y5K5 whole entry, looked up): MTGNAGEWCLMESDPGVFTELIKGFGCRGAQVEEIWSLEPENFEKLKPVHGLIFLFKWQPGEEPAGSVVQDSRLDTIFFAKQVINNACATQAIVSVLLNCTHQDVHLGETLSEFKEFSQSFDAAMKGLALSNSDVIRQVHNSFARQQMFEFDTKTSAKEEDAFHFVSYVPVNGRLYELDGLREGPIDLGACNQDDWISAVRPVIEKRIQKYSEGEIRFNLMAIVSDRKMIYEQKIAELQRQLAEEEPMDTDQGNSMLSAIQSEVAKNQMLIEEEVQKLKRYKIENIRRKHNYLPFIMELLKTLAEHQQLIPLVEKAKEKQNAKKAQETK
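Test system – human UCH37 enzyme supplied as purified proteasome complex · Incubation – 30 min preincubation with enzyme, 25 min cleavage at room temperature · Detection – AMC fluorescence from Ub-AMC cleavage, excitation 355 nm, emission 460 nm · Benchmarks – no-proteasome wells (full inhibition) and compound-free wells (no inhibition)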
RanGTP-Imp inh = inhibitors of RanGTP-importin-beta interaction, primary screen, biochemical, FRET, CFP-Ran, YFP-importin-beta, homogeneous; inhibition, % (no concentration beside the values); AID 2216, 2009; cell-free CFP-Ran/YFP-importin-beta FRET ratio; 300,000 tested, 1.1% active;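 active = most replicates above 15%; inconclusive = exactly half above 15%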;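 also: 0% = DMSO wells and 100% = Ran loaded with GDP instead of GTP; wells of about 40 µL received 100 nL stock; the first replicate is given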
FGF22 binding = binders of human FGF22 protein, primary screen, FGF22 synaptogenesis inhibitor project, biophysical, thermal shift, single point | recombinant FGF22 thermal shift, SYPRO orange fluorescence; percent of sucrose octasulfate shift, DMSO zero | 340,000 tested, 1.5% active | calls only at 9.99 µM;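 active = melting point raised past a set limit in the mean and every replicate; inconclusive = no clear call; three in four hits are not shown here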
Target sequence (Q9HCT0 whole entry, looked up): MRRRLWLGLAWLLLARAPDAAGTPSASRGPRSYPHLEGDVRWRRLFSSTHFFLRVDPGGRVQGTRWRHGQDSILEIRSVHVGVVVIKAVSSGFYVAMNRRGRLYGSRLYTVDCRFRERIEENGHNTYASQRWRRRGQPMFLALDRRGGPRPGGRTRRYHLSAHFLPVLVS
HNF4A DNA FP = change in binding of human HNF4A to DNA, primary screen, biochemical, fluorescence polarization, FITC-DNA. Hepatocyte nuclear factor 4-alpha (Homo sapiens), P41235. 1 h. activity change, % at 10 µM. 360,000 tested, 0.3% active; in the data active = activity change above about 30%, passing the limit was not always enough;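 also: controls were the assay level and a saturating level of protein; the project sought stronger binding though the title names inhibitors; some compounds called inactive have numbers as strong as hits; positive values seem to mean higher polarization but the record does not say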
Target sequence (P41235 whole entry, looked up): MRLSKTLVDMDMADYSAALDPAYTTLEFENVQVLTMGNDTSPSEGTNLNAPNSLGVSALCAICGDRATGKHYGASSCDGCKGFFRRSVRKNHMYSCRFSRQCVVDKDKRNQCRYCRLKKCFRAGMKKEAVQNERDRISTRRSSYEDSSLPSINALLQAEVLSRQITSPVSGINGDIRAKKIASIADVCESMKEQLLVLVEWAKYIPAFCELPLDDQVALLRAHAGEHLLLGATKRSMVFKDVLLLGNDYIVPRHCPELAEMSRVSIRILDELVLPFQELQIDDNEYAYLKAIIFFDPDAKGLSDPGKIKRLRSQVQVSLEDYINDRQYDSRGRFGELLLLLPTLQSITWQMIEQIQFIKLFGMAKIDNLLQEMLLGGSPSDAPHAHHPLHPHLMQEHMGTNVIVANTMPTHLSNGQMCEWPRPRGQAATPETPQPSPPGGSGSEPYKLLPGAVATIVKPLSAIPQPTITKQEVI
Vif A3G = inhibitors of Vif binding to APOBEC3G peptide, primary screen, biochemical, TR-FRET, GST-Vif 1-94, biotin-A3G peptide, dose response retest (AID 1117319). inhibition, %; hits with a dose series show IC50 in µM. TR-FRET GST-Vif / biotin-A3G peptide binding; higher % means a stronger effect; test concentration not given here; strong numbers were not always called active. Virion infectivity factor (Human immunodeficiency virus type 1 group M subtype B (isolate …. 260,000 tested, 0.57% active;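 active = above the screen mean plus three standard deviations and confirmed in dose response; inconclusive = results disagree or hit not tested in dose response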;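 also: Vif residues 1-94 fused to GST binding biotinylated APOBEC3G peptide 110-148; 0% = full assay without inhibitor and 100% = GST in place of GST-Vif; retest series ran down from 100 µM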
E coli growth = E. coli growth inhibition, primary screen, OD600; Escherichia coli growth, 23 h; hits give low values; OD600 absorbance (test concentration not listed); AID 1053175, 2014; 330,000 tested, 0.21% active;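 active = OD600 absorbance below the run mean of sample wells minus 3.6 SD, in any replicate, cut at about 0.56 in these data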;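 also: stock transfer was 300 nL into about 60 µL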
MLL AF4-AF9 inh = inhibitors of AF4 peptide binding to AF9, primary screen, biochemical, AlphaScreen, biotin-AF4 peptide, FLAG-AF9, single point. Protein AF-9 (Homo sapiens), P42568. 350,000 tested, 0.47% active. inhibition, % at 10 µM;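 active = every replicate reaching a set inhibition limit, whatever the replicate mean, cut at about 25% in these data; inconclusive = mean inhibition reaches that limit but some replicates miss it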;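 also: 0% = plate neutral control median and 100% = total signal loss; the record names both 10 and 1 µM as test concentration; the first replicate is given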
Active calls of the source: *; i = inactive; ? = inconclusive; / = no result given. A portion of the library. The share of hits here may be higher or lower than overall.

Values run as follows: UCH37 inh, RanGTP-Imp inh, FGF22 binding, HNF4A DNA FP, Vif A3G, E coli growth, MLL AF4-AF9 inh
COc1ccc(N(C(C)C(=O)NCCSCc2cccc(Cl)c2)S(C)(=O)=O)cc1 (stereo unspecified)
  1.9, -0.8, i, -2.0, -0.1%, 0.691, 1.8
CC(C)(C)n1c(=O)[nH]c2c(c1=O)CCC2
  -4.4, ?, /, 1.4, 4.8%, 0.734, 4.5
O=C(NCc1cc(F)ccc1F)C1CCC(=O)N(C2CCCCCC2)C1 (stereo unspecified)
  0.0, 0.9, i, -1.1, /, 0.623, -0.5
CSc1ccc(CN2CCC(n3nccc3NC(=O)C3CCOC3)CC2)cc1 (stereo unspecified)
  2.6, 3.1, i, -0.6, -4.4%, 0.684, 0.3
CC(C)C1C(=O)N(Cc2cn(CC3CCCCC3)nn2)CCS(=O)(=O)N1Cc1ccc(-c2ccc(Cl)nc2)cc1 (stereo unspecified)
  /, /, i, -3.0, /, /, -4.3
O=C(Nc1ccc(CN2CCS(=O)(=O)CC2)cc1)c1ccc(F)cc1
  3.7, 4.2, i, 0.1, -4.6%, 0.664, -13.2
CC(C)Cn1c(=O)c(C(=O)NCc2ccccn2)c(O)c2ccccc21
  -0.9, 3.6, /, -0.7, 9.2%, 0.71, /
CCOC(=O)c1c(/N=C/c2ccc(OC)cc2O)sc2c1CCN(C)C2
  /, 5.3, i, 6.7, 23.3%, /, 11.8
COc1ccc(S(N)(=O)=O)cc1C(=O)OCC1CCCCC1
  0.5, 0.2, i, -4.5, /, 0.709, 3.4
COc1cc(NC(=O)c2cc3cccc(OC)c3o2)cc(C(=O)Nc2cccc(C(F)(F)F)c2)c1
  -1.5, ?, i, 11.4, /, 0.705, -0.8
CC(C)OP(=O)(OC(C)C)C(Nc1ccccc1)c1cccnc1 (stereo unspecified)
  5.0, -2.1, i, 0.1, 16.7%, 0.659, 2.0
CSc1nnc(Cn2c(=O)sc3ccccc32)n1CCc1ccccc1
  1.2, ?, i, 1.2, 2.0%, 0.699, -1.5
CN1CCN(NC(=O)c2ccc(S(=O)(=O)N3CC4(C)CC3CC(C)(C)C4)cc2)CC1 (stereo unspecified)
  2.1, 2.6, i, -1.5, 74.7%, 0.69, 4.0
Cc1nc2cc(NC(=O)NCc3ccco3)ccc2n1C
  0.8, 1.0, /, -2.0, -0.9%, 0.653, /
COc1ccc(CC(=O)Nc2ccc(-c3noc(-c4ccc(Cl)cc4)n3)cc2)cc1
  2.1, ?, /, 12.5, -4.0%, 0.757, /
Nc1ccc(C(=O)OCCCc2nc3cc4ccccc4cc3[nH]2)cc1
  /, -3.1, i, 1.0, 20.2%, /, 0.1
CC(C)[C@H](NC(=O)OCc1ccccc1)C(=O)OCC(=O)NCCc1ccccc1
  3.4, 0.1, i, 0.5, /, 0.693, -9.7
CCC(=O)Nc1nc(CC(=O)Nc2ccccc2OC)cs1
  5.4, 4.8, /, -0.2, 5.3%, 0.779, /
CC1CCN(CCCn2c(SCC(=O)NC3CCCC3)nc3ccccc3c2=O)CC1
  4.4, -1.5, i, -0.1, /, 0.632, 1.2
COc1cc(NS(=O)(=O)c2ccc(NC(=O)c3ccc(S(=O)(=O)N4CCCC4)cc3)cc2)ncn1
  0.6, -3.7, /, /, -2.8%, 0.74, 1.7
Cc1ccccc1Cn1c(C)c(C(=O)NCc2cccc(Cl)c2)sc1=O
  /, /, i, -0.9, /, /, 0.0
Cn1cnnc1SCCC(=O)Nc1ccc(Cl)cc1
  -1.2, 0.9, /, 6.6, 0.5%, 0.711, /
O=S(=O)(Cc1cc(Cl)nc(-c2ccccc2)n1)c1ccccc1
  -0.1, 0.5, /, 3.5, -4.9%, 0.639, /
COc1cc(CNCc2ccco2)ccc1OCc1ccccc1
  2.7, -2.8, /, 2.7, -1.6%, 0.66, /
CC(=O)Nc1c2c(nn1-c1cccc(C)c1)CSC2
  2.4, -1.8, i, -3.8, 0.3%, 0.756, -0.2
CCOC(=O)Cn1c(=O)c2c(nc3n2CCCN3Cc2ccccc2)n(C)c1=O
  1.4, -2.0, i, 4.4, -8.0%, 0.653, -13.9
O=C(COC(=O)c1cccc(F)c1)Nc1cccc(S(=O)(=O)N2CCCCC2)c1
  /, /, i, -3.3, -3.1%, /, -1.4
C#CCOCCOCCOCCNc1nc(N2CCN(C(=O)[C@H](C)n3cc(CCC(=O)O)nn3)CC2)nc(N2CCN(C(=O)[C@H](Cc3ccc(O)cc3)n3cc(CCO)nn3)CC2)n1
  0.2, /, i, -4.9, /, /, /
Cc1cccc(C)c1NC(=O)CNC(=O)C(NC(=O)c1ccc(C(C)(C)C)cc1)C(C)C (stereo unspecified)
  4.2, ?, i, -1.5, 10.5%, 0.683, 2.1
CC[C@@]1(c2ccccc2)C(=O)N(C(=O)OC)N1C(=O)OC
  2.5, 2.4, i, 2.0, /, /, -1.4

Reprinted from the part before: two compounds; new compounds follow.
Values run as follows: UCH37 inh, RanGTP-Imp inh, FGF22 binding, HNF4A DNA FP, Vif A3G, E coli growth, MLL AF4-AF9 inh
Cc1cccc(C)c1NC(=O)CNC(=O)C(NC(=O)c1ccc(C(C)(C)C)cc1)C(C)C (stereo unspecified)
  4.2, ?, i, -1.5, 10.5%, 0.683, 2.1
CC[C@@]1(c2ccccc2)C(=O)N(C(=O)OC)N1C(=O)OC
  2.5, 2.4, i, 2.0, /, /, -1.4
O=C(c1ccc([N+](=O)[O-])cc1)N1C=CC(C(F)(F)F)=NCC1
  5.9, -0.7, i, 0.1, -2.4%, 0.664, 1.1
CCC1=C(c2ccc(OC)cc2)CCC(C(=O)O)C1C (stereo unspecified)
  4.2, /, i, 1.6, -0.1%, 0.728, 4.8
CCCCn1c(N)c(N(CC)C(=O)c2ccc(C#N)cc2)c(=O)[nH]c1=O
  4.9, 3.5, i, 4.5, -6.4%, 0.64, -5.5
NNC(=O)C1C(O)CCC2CN3CCc4c([nH]c5ccccc45)C3CC21 (stereo unspecified)
  /, /, i, -0.5, -9.7%, /, 3.4
CN1C[C@@H]2C[C@@H](c3ccc(C#CC(C)(C)O)s3)N3CCC[C@@]23C1=O
  1.1, -1.3, /, 3.6, -8.1%, 0.687, /
CCOc1ccccc1N(C)C(=O)Cn1ncc2c([nH]c3ccc(C)cc32)c1=O
  -2.2, 2.4, i, 4.6, 3.9%, 0.621, -1.9
C=CC[C@@H](CC(=O)N[C@H](CO)Cc1ccccc1)C(=O)N[C@H](COC(=O)[C@@H](CC=C)CC(=O)OC(C)(C)C)Cc1c[nH]c2ccccc12
  0.1, /, i, 2.0, /, /, -22.3
O=C1C(Sc2ccccc2)=C[C@@]2(O)CC[C@@H](O)[C@]1(Sc1ccccc1)[C@H]2O
  /, /, i, 12.0, /, /, 2.2
Cc1ccc(OCC(=O)Nc2ccc(S(=O)(=O)N3CCOCC3)cc2)c(Br)c1
  1.3, -2.0, i, 3.3, /, 0.739, -1.1
NS(=O)(=O)c1cc(C(=O)NNC(=O)c2ccc3c(c2)OCO3)ccc1Cl
  3.5, /, i, -6.6, 9.0%, 0.717, -0.3
CCc1nc2ccc(C(=O)N3CCN(C(C)=O)CC3)cn2c1N(CCC(C)C)CCN(C)C
  /, /, i, -3.0, /, /, -1.8
O=C(NCC1CCCCC1)c1ccc2sc([C@H]3C[C@H](O)[C@@H](CO)O3)nc2c1
  /, /, i, -1.9, /, /, -0.9
Cc1ccc(-c2csc(C(O)c3ccc(F)cc3)n2)cc1C (stereo unspecified)
  /, /, i, 0.2, /, /, -0.1
CCCc1cc(=O)n2[nH]c(NCc3ccc(OC)c(OC)c3)nc2n1
  2.9, ?, i, 1.5, -1.7%, 0.709, -4.2
CN1CCN(S(=O)(=O)c2cccc(C(=O)Nc3nc(-c4ccccc4)cs3)c2)CC1
  3.0, /, /, -0.4, 4.9%, 0.631, /
O=C(O)C1[C@H]2C(=O)N(C3CCCC3)C[C@]23C=C[C@H]1O3 (stereo partly specified)
  1.2, 0.1, /, -5.2, 11.6%, 0.682, -0.4
N=c1c(C(=O)NCc2ccccc2)cc2c(=O)n3ccccc3nc2n1Cc1ccco1
  -69.4, 77.9*, /, -1.7, 13.4%, 0.675, /
CCN1CCc2c(OCC(=O)Nc3ccc(C)cc3)cccc2C1=O
  3.6, 1.5, i, -1.3, /, 0.678, 1.7
COc1ccc(C(=O)COC(=O)c2ccc(N(C)C)cc2)cc1
  -3.7, -1.1, i, -3.2, -12.5%, 0.716, -1.2
C/C(=C\c1ccccc1)CN1CCC(C(=O)N2CCCC(C)C2)CC1 (stereo unspecified)
  -1.0, 7.3, i, 0.8, 1.7%, 0.697, -0.6
N/C(Cc1cccs1)=N\OC(=O)COc1ccc(Cl)cc1Cl
  0.8, 7.4, /, 1.0, 3.2%, 0.705, /
CCN1C(=O)[C@H]2[C@@H](c3ccc(-c4ccccc4)cc3)N[C@@](CC(C)C)(C(=O)OC)[C@H]2C1=O
  3.0, 11.4, i, -2.0, /, 0.812, -3.0
Cc1cccc(NC(=O)C2CCN(S(=O)(=O)c3c(C)c(C)cc(C)c3C)CC2)n1
  -2.0, -1.0, i, 6.2, -5.0%, 0.696, 1.2
ONC(=Nc1ccccc1)C(=Nc1ccccc1)NO
  2.8, 3.7, /, 1.7, 17.7%, 0.686, /
COc1ccc(C2SCC(=O)N2c2c(C)n(C)n(-c3ccccc3)c2=O)c(OC)c1 (stereo unspecified)
  0.3, 3.1, /, -2.0, -3.8%, 0.689, /
O=C1N(c2ccccc2)C(c2ccccc2)C12CCCCC2 (stereo unspecified)
  2.2, /, i, -3.5, 1.1%, 0.705, -1.6
O=C(N/N=C/c1ccc2c(c1)OCO2)c1ccc(NC(=O)c2ccccc2Cl)cc1
  /, 5.4, i, 3.6, /, /, 11.2
COC(=O)c1cc(S(=O)(=O)NCC2CCN(Cc3ccc(C)cc3)CC2)cn1C
  2.8, ?, i, -2.8, /, 0.686, 1.4
COC(=O)c1cc(OC)c(OC)cc1NC(=O)c1ccc(Br)o1
  -3.2, 5.4, /, -0.7, -15.0%, 0.727, /
Cc1ccc(C(=O)COC(=O)CNC(=O)Cc2ccccc2)cc1
  1.8, 1.4, i, -0.5, 1.0%, 0.682, -0.5
CS(=O)(=O)N1CCN(C(=O)CSc2ccccc2)CC1
  2.8, 1.7, i, 1.3, /, 0.648, 0.8
COc1ccccc1NC(=O)CSc1nnc(-c2ccco2)n1Cc1ccco1
  0.5, 4.3, /, -0.5, -0.4%, 0.679, /
O=C1Nc2ccccc2N=C(c2ccc3c(c2)OCO3)C1N(CCc1ccccc1)C(=O)CSc1ncccn1 (stereo unspecified)
  /, /, i, 4.7, /, /, 1.6

Bioassay records (PubChem BioAssay)
